CtBP-E1A blk: blocks the CtBP interaction with E1A. AlphaScreen GST-E1A/His-CtBP binding, 1536-well; hits give low values; control for the full effect not named in the record. activity change, % (concentration not given with the values). actives 0.49% (n = 340,000); in the data active means activity change below about -65%; inconclusive means about -30% to -65%; inactive means above about -30%; further: on the % scale 0 is the no-effect control and ±100 the full control effect
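Protein mix (5X: 125 nM each GST-E1A, His-CtBP) was incubated with pinned compound 2 h at 37 deg C in dark, in 50 mM Tris pH 8.0 buffer with 300 mM NaCl. Glutathione donor and nickel acceptor beads followed; AlphaScreen signal read after 1 h.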
D2 agonist: agonists of human D2 dopamine receptor (beta-arrestin); actives 0.084% (n = 360,000); DiscoveRx PathHunter D2 beta-arrestin, luminescence, 90 min; 100% = 57 uM dopamine signal; activation, % (concentration not given with the values); P14416; in the data active = activation above about 40%; inconclusive = about 15% to 40%; inactive = below about 15%; further: compound concentration not given in the record; the text of the record calls up to 30% inactive
Target sequence (P14416 whole entry, looked up): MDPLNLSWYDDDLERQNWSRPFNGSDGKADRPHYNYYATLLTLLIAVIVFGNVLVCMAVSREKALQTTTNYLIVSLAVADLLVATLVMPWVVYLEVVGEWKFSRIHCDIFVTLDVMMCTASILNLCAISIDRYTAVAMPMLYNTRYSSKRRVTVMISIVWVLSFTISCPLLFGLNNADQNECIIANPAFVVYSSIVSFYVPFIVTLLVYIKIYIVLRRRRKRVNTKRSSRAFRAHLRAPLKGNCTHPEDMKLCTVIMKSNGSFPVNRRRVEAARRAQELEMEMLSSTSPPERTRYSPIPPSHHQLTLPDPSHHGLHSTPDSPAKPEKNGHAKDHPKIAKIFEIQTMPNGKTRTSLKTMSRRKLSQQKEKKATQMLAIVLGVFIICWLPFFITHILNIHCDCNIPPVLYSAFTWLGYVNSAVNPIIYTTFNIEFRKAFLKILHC
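DiscoveRx PathHunter D2 beta-arrestin cells (2,100/well) attached overnight, then compound-stimulated 90 min at 37 C in HBSS/10 mM HEPES/0.1% Tween-20 buffer; beta-galactosidase complementation read by luminescence after 1 h at ambient temperature. Dopamine 57 uM final (EC100) as control.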
TRPV1 PAM: potentiators of human vanilloid receptor 1 (TRPV1) | potentiation, % at 8.33 µM | TRPV1-expressing cells, Fluo-8 calcium influx, capsaicin EC20 potentiation; host cell line not named in the record; control for the full effect not named in the record | Q8NER1 | actives 0.02% (n = 320,000); active means potentiation above 80%; inconclusive means 30% to 80%; inactive means below 30%; further: 0% is about no effect
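Cells expressing TRPV1 were dye-loaded with Fluo-8 and read kinetically: 10 s baseline, 3 min after compound (agonist portion), then 2 min after EC20 capsaicin (allosteric enhancer portion). Calcium-bound dye fluorescence at 480/520 nm.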
D2 PAM: potentiates the human D2 dopamine receptor allosterically. DiscoveRx D2 beta-arrestin cells, luminescence, 90 min; 100% = 57 uM dopamine signal. actives 0.23% (n = 360,000). potentiation, % (no concentration beside the values); active = potentiation of 50% or more; inconclusive = 30% to 50%; inactive = 30% or less;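 further: compound concentration not given in the record; tested on top of an EC20 dose of dopamine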
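PathHunter beta-arrestin assay in DiscoveRx D2 cells. Compounds were added with an EC20 of dopamine (50 nM final) for 90 min at 37 deg C. Luminescence was read 1 h after detection reagent, with 57 uM dopamine as the EC100 control.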
Sfp PPTase inh: blocks B. subtilis Sfp PPTase activity. Q9F4F7. Biochemical Sfp PPTase activity, qHTS. Potency, µM, inactives show max response, negative = inhibition, hits mostly inhibitors. actives 3.5% (n = 310,000). AID 1490; active means well fitted inhibition curve with a large enough effect; inconclusive means small, poorly fitted or top-dose-only effect, or another doubt; inactive means no such curve, though single readings can be large or run the other way;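 further: the enzyme is Sfp with the accession as filed and its product quenches rhodamine fluorescence; potency means the concentration at half of the fitted maximal effect; 0% = enzyme reaction without inhibitor and -100% = no enzyme wells; top concentration of the series not given in the record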
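With Hepes-Na pH 7.6 buffer containing 10 mM MgCl2, Sfp (15 nM) modified BHQ-2-YbbR (12.5 uM) using rhodamine-CoA (5 uM). Two reads 30 minutes apart at 525/598 nm yielded each well's rate.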
PINK1 modulator: modulators of PINK1 expression. AID 624263. Potency, µM (titrated, usually from 76.6 µM), for inactives: at the highest dose activation (PINK1 increase), hits mostly activators. PINK1 immunofluorescence, high-content cytometry, 24 h. actives 0.2% (n = 410,000); active = well fitted activation curve with a large enough effect; inconclusive = small, poorly fitted or top-dose-only effect; inactive = flat fitted curve, though single readings scatter; cell line not stated here;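 further: potency means the concentration at half of the fitted maximal effect; % of control where 0% means no effect; nearly all actives have a fitted effect of over 65% in size; a mitochondrial uncoupler was the plate control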
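Fluorescence from anti-PINK1 antibody, together with nuclear and cell stains, was scanned on a laser-scanning cytometer. Before staining, stable-line cells were incubated 24 hours with compounds at 5 concentrations; primary antibody 12 h at 10 degrees C.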
Six1-Eya2 inh: Six1/Eya2 interaction inhibition; activity change, % (test concentration not listed); actives 0.56% (n = 360,000); AlphaScreen GST-Six1/His-Eya2 binding, biochemical; hits give low values; control for the full effect not named in the record; AID 651725; in the data active = activity change below about -65%; inconclusive = about -30% to -65%; inactive = above about -30%; further: on the % scale 0 is the no-effect control and ±100 the full control effect; compound concentration not given in the record
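AlphaScreen with GST-Six1 and His-Eya2 (5X mix: 250 nM and 500 nM), glutathione donor and nickel acceptor beads; buffer 50 mM Tris pH 8.0, 300 mM NaCl, 1 mM TCEP; 1 h at 37 C in the dark.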
Starred values were filed as active, the others as inactive; ? = inconclusive; / = not tested or not shown; [ ] = dose if it differs, or a comment.

SMILES	CtBP-E1A blk	D2 agonist	TRPV1 PAM	D2 PAM	Sfp PPTase inh	PINK1 modulator	Six1-Eya2 inh
Cc1ccc(S(=O)(=O)N2C[C@H]3[C@H]4C(=O)N(Cc5ccccc5)C(=O)[C@H]4CC(=O)[C@H]3[C@@H]2c2ccccc2F)cc1	5	-1.5	/	1	/	-0.3%	1
O=C(O)c1c[nH]c2ccc(F)cc2c1=O	3	-1.7	-20	-7	16%	-2.8%	1
O=C(CCSc1ccc(Cl)cc1)N1CCN(c2ncccn2)CC1	-4	-2.1	-19	9	-1%	-0.2%	9
c1csc(-c2nc(N3CCOCC3)c3ccccc3n2)c1	1	-2.3	-4	-2	6%	0.6%	3
C=C(C)COc1ccc(-c2nc(N)ncc2Oc2ccccc2OCC)c(O)c1	-4	-0.2	-2	-5	14%	-0.2%	-12
CN1CCN(c2ccc(S(=O)(=O)N3CCOCC3)cc2NC(=O)COc2ccc(C#N)cc2)CC1	-4	4.4	/	-3	/	0.7%	0
C=CCNC(=O)c1ccc(N(CC=C)S(C)(=O)=O)cc1	7	1.6	-1	-18	11%	0.7%	4
O=C(CCCOc1ccc(Cl)cc1Cl)Nc1nnc(C2CC2)s1	10	-1.7	21	1	5%	2.1%	1
CS(=O)(=O)N1CCCC(C(=O)NC2CCCCCCC2)C1 (stereo not given)	9	0.2	3	-8	19%	/	1
CCCNc1c(NC(=O)c2ccc3c(c2)OCO3)c(=O)oc2ccccc12	1	0.9	-9	-2	13%	3.1%	-2
CC1=NN(Cc2ccccc2)C(=O)C1	5	-5.3	0	-33	3%	0.7%	-12
Cc1ccc(NC(=O)c2ccc(NCCCN3CCOCC3)c([N+](=O)[O-])c2)cc1Cl	-6	-3.1	23	-36	-27%	4.5%	-30

Ordered by SMILES length (ascending): some entries from above.
SMILES	CtBP-E1A blk	D2 agonist	TRPV1 PAM	D2 PAM	Sfp PPTase inh	PINK1 modulator	Six1-Eya2 inh
O=C(CCCOc1ccc(Cl)cc1Cl)Nc1nnc(C2CC2)s1	10	-1.7	21	1	5%	2.1%	1
C=C(C)COc1ccc(-c2nc(N)ncc2Oc2ccccc2OCC)c(O)c1	-4	-0.2	-2	-5	14%	-0.2%	-12
CN1CCN(c2ccc(S(=O)(=O)N3CCOCC3)cc2NC(=O)COc2ccc(C#N)cc2)CC1	-4	4.4	/	-3	/	0.7%	0

Next results follow.
SMILES	CtBP-E1A blk	D2 agonist	TRPV1 PAM	D2 PAM	Sfp PPTase inh	PINK1 modulator	Six1-Eya2 inh
O=S(=O)(c1cc(Cl)ccc1Cl)N1CCN(Cc2ccc3c(c2)OCO3)CC1	-9	-3.0	2	-6	18%	-2.5%	-15
COc1cccc(Oc2cn[nH]c2-c2ccc(OC)cc2O)c1	-2	1.1	6	0	16%	6.3%	-3
O=C(Nc1cccc(O)c1)C1CC(c2c(F)cccc2Cl)=NO1 (stereo not given)	/	2.7	-11	14	13%	0.3%	-2
O=C(O)CSc1nnnn1-c1ccc2c(c1)OCCO2	2	-5.4	9	-7	0%	2.0%	1
Cc1cc(C)c(C)c(S(=O)(=O)N2CCNCC2)c1C	4	3.5	4	-9	23%	9.6%	-2
CCc1ccccc1NCC(=O)Nc1ccccc1C(=O)OC	?	2.5	1	4	3%	0.4%	-2
Cc1cc(C)cc(N(CC(=O)N/N=C/c2ccncc2)S(=O)(=O)c2ccccc2)c1	-3	1.5	-12	3	-23%	4.0%	-4
O=C1NC[C@H](CC2CCCCC2)N(CCc2cccc3ccccc23)C1=O	-2	/	/	/	/	7.6%	3
Cc1ccc(-n2nc3c(c2NC(=O)c2ccc4c(c2)OCO4)CS(=O)C3)c(C)c1 (stereo not given)	-4	-2.5	10	0	/	-5.9%	3
N#CCC(=O)Nc1ccc(C(F)(F)F)cc1N1CCOCC1	3	1.4	3	-7	-12%	1.1%	5
COc1ccc(-n2cccc2/C=C/[N+](=O)[O-])cc1	-6	-4.6	3	-3	?	-2.5%	-17
COc1ccc(/C=C(/NC(=O)c2ccco2)C(=O)Nc2ccc(C(C)=O)cc2)cc1	-5	-0.4	-15	-3	0%	8.2%	-3
O=C(O)[C@@H]1CCCN1c1ncnc2sc3c(c12)CCC3	10	-2.9	10	11	17%	1.5%	6
COc1ccc(CN(C)C(C)C(=O)Nc2ccc(S(=O)(=O)N3CCCCC3)cc2)cc1F (stereo not given)	/	-3.6	4	-13	/	0.8%	0
Cc1ccc(-c2csc(C(O)c3ccc(F)c(F)c3)n2)cc1C (stereo not given)	2	8.4	/	5	/	7.0%	11
O=C(Nc1ccc(N2CCN(C(=O)c3cccs3)CC2)cc1)c1ccc([N+](=O)[O-])o1	/	/	-9	2	7%	/	/
CCN1CCN(C(=O)Cn2cnc3sc(C)c(S(=O)(=O)N4CCN(c5ncccn5)CC4)c3c2=O)CC1	6	2.1	0	-1	23%	0.9%	0
COc1ccccc1CN(C)c1ccc(S(=O)(=O)N2CCN(C)CC2)cn1	/	-4.2	12	-12	/	0.6%	-11
CCN1C(=O)[C@H]2[C@@H](c3ccc(C)cc3)N3C(=O)N(c4ccc(C(F)(F)F)cc4)C(=O)[C@@]3(Cc3ccccc3)[C@H]2C1=O	5	-0.2	-9	10	-24%	2.4%	0
CCOC(=O)CN1C(=O)C(Sc2n[nH]c(-c3cccc(C)c3)n2)CCc2ccccc21 (stereo not given)	-4	-0.1	10	-22	2%	3.0%[38.3 µM]	-10
CC1(C)CC(NC(=O)c2ccc(Cl)cc2Cl)CC(C)(C)N1	3	3.7	17	-2	-5%	1.6%	-2
CCCn1c(=O)c(Cc2ccccc2)c(O)c2ccccc21	-2	-0.8	6	-18	-29%	-1.1%	-2
O=C1C2CCCN2C(=S)N1c1ccc(Cl)cc1 (stereo not given)	-2	5.8	-8	-3	-6%	?	-2
COc1cc(C2c3cc(O)c(OC)cc3CC(C(=O)O)C2CO)ccc1O (stereo not given)	3	2.6	/	-2	/	0.6%	6
Cc1cccc(CN2CCN(C3CN(Cc4ccc(F)cc4)S(=O)(=O)C3)CC2)c1 (stereo not given)	-10	-5.6	/	-17	/	0.1%	1
CS(=O)(=O)N1CCC(c2noc(-c3ccc(C(F)(F)F)cc3)n2)CC1	10	4.4	-5	?	4%	3.4%	0
Cc1cc(C)cc(Oc2coc3cc(OC(=O)c4cccs4)ccc3c2=O)c1	-3	-0.9	10	-12	-29%	3.6%	-16
Cc1cccc(-c2noc(CN(C(=O)CCc3ccccc3)C(C)C)n2)c1	-9	-3.2	-15	-7	0%	3.7%[38.3 µM]	10
COc1ccc(CCNC(=S)Nc2cc(C)cc(C)c2)cc1	-1	-2.6	-5	-22	4%	-1.3%	-15
CN(C)c1ccc(/C=N/NC(=O)c2ccc(CN3CCOCC3)cc2)cc1Br	0	-3.5	-7	-5	4%	2.0%	-1
C=C(CC[C@@H](O)C(C)(C)O)[C@H]1CC[C@]2(C)[C@@H]1CCC1[C@@]3(C)CC[C@H](O)C(C)(C)C3CC[C@]12C (stereo not given in full)	-1	0.1	/	-8	/	-0.9%	5
O=C(N/N=C/c1cccc(F)c1)c1csc2c1CCCC2	7	-0.4	-8	-12	-10%	0.6%	0
COCc1cc(=O)oc2cc(NS(=O)(=O)c3ccc(C)cc3)ccc12	-2	-4.4	1	-1	-2%	13%	0
CCOC(=O)C(=O)NC(C)CCc1ccccc1 (stereo not given)	5	-0.9	-14	14	21%	-0.1%	0
COc1ccccc1C(=O)NCC(=O)N/N=C/c1cc(Br)ccc1OC(=O)/C=C\c1ccco1	/	-5.8	22	-5	6%	15%	-74*
Cc1ccc(-c2nc3sc(C(N)=O)c(N)c3c3c2CCCC3)cc1	9	-7.5	25	12	40µM*	-2.2%	-4
CCCCN(C)C(=O)c1cn(CC)c2nc(C)ccc2c1=O	-2	1.2	-6	5	5%	8.4%[38.3 µM]	3
CC1OC(Nc2cccc3ccccc23)C(O)C(O)C1O (stereo not given)	19	0.9	-5	20	-1%	-1.0%[38.3 µM]	-6
Brc1ccc(C[n+]2ccccc2)cc1	7	-1.4	-23	-11	/	-0.8%	0
Cc1ccc(S(=O)(=O)N/N=C/C(C)(C)CO)cc1	-1	-2.4	-10	-12	16%	-0.4%	2
CCCS(=O)(=O)NCc1ccc2c(c1)cc(C)n2C	52	-1.7	10	-8	0%	-0.5%[38.3 µM]	-1
COC(=O)c1ccccc1OCCN1CCCCCC1	0	0.8	13	-17	?	0.8%	5
N=c1c(S(=O)(=O)c2ccc(Br)cc2)cc2c(=O)n3ccccc3nc2n1C1CCCC1	/	3.1	?	-6	-12%	-0.1%	6
O=C(NCCc1cn2ccsc2n1)c1cccs1	-16	-3.1	-1	2	13%	0.8%	1
CCN(CC)C(=O)Cn1cc(S(=O)(=O)CC(=O)Nc2cc(C)on2)c2ccccc21	7	-0.5	/	-9	/	1.7%	-1
COc1cccc(CNC(=O)[C@@H]2CCCN2C(=O)[C@H]2CCCCN2C(=O)c2cccc(OC)c2)c1	7	/	/	/	/	-0.1%	11
COCCCNC(=O)c1cccs1	-1	-3.7	2	-28	2%	-0.8%	3
CC(C)NC(=O)Cn1c(=O)c2c(ncn2Cc2ccccc2)n(Cc2ccccc2)c1=O	6	11	3	0	-14%	10%[38.3 µM]	4
CCOC(=O)C1(Cc2ccccc2)CCCN(C(=O)c2cn[nH]c2)C1 (stereo not given)	-5	1.1	4	-2	23%	0.6%	1
CCC(C)c1ccccc1OCCCNC1CCCC1 (stereo not given)	/	-7.5	8	-8	-15%	?	0
C=CCOc1ccc(/C=C/C(=O)OCC(=O)NC2CCCCCCC2)cc1	-1	-2.7	1	-6	32%[activator]	4.7%	4
CC(C)c1ccccc1NC(=O)c1ccccc1NC(=O)C1CCCCC1	7	-4.2	-3	-3	13%	5.0%	4
C[C@H](NC(=O)OCc1ccccc1)C(=O)NNC(=O)[C@H](C)NC(=O)OCc1ccccc1	8	-3.2	-4	-2	10%	0.1%	5
CCOC(=O)C1CCC/C1=N\NC(=O)CN(c1cc(OC)ccc1OC)S(=O)(=O)c1ccccc1 (stereo not given)	10	-4.4	-2	0	4%	5.6%	-7
Cc1ccc(Cn2c(=O)c3c(nc4n3CCCN4Cc3ccccc3)n(C)c2=O)cc1	-1	-1.6	-4	-24	4%	12%	-10
O=C(NCc1cccnc1)c1ccc(=O)oc1	6	-2.7	-26	-2	20%	/	3
CCC(=O)Nc1cccc(NC(=O)CSc2nc3c(c(=O)n(C)c(=O)n3C)n2C)c1	-7	-2.0	16	-3	9%	2.0%	-26

Source: PubChem BioAssay (National Center for Advancing Translational Sciences (NCATS))
